MT1-MMP act inh = inhibitors of human MT1-MMP activation; HT1080 RFP-PRO-GFP cells, GFP/RFP ratio fluorescence, overnight; percent of plate control window, DMSO zero; GFP/RFP ratio change, % at 20 µM; actives 0.061% (n = 360,000); AID 651647;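 active = GFP/RFP ratio change of at least 30% with cell ATP level not reduced by more than half and red fluorescence within 50% of control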; note: strong numbers were not always called active
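Material – HT1080 RFP-PRO-GFP cells · Control set – DMSO wells and RFP-L50D-GFP cells · Incubation – overnight cell settling, then overnight compound exposure, 37 °C, 5% CO2 · Compound dosing – single-point 20 µM compound, 1% DMSO · Read-out – GFP/RFP fluorescence ratio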
eIF4H FP inh = inhibitors of RNA binding by human eIF4H; eIF4H fluorescence polarization binding assay; inhibition, % at 35 µM; actives 0.94% (n = 290,000); Q15056;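 active = 50% or more with normal probe brightness, or confirmed in later tests; about a fifth of its hits are not listed in these tables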;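 note: calls also rest on retests at 20 µM and on dose response follow-up; 0% = protein and probe with vehicle and 100% = probe without protein; strong numbers were not always called active; many hits fall short of the cut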
Yeast UUG start = modulators of start codon recognition fidelity in yeast; actives 0.13% (n = 350,000); S. cerevisiae UUG-firefly luciferase reporter, luminescence/redox ratio; AID 602363; activity score, % at 18.7 µM;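 active = replicate mean at a twofold rise or more, about +100% in these data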;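 note: firefly luciferase made from a UUG start codon reports start codon fidelity; reporter light over untreated wells divided by growth signal over untreated wells; some hits fall short of that in this replicate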
Rce1 inhib = yeast Ras-converting enzyme inhibition | AID 2563 | yeast membranes, quenched prenylated peptide cleavage fluorescence | actives 0.27% (n = 290,000) | calls only;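 active = fall in fluorescence gain of 50% or more versus controls, with final raw signal at or below 3038400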;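 note: plate controls were neutral control wells for no effect and wells lacking membranes for full effect; tested at 10 µM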
PABP polyA inh = blocks human PABP binding to poly(A) RNA | AID 2014 | inhibition, % at 35 µM | P11940 | actives 1% (n = 290,000) | fluorescence polarization;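 active = 50% or more with normal probe brightness, or confirmed in later tests; about a fifth of its hits are not listed in these tables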;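 note: calls also rest on retests at 20 µM and on dose response follow-up; controls were probe without protein and protein plus probe with vehicle; some compounds called inactive have numbers as strong as hits; many hits fall short of the cut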
Target sequence (P11940 whole entry, looked up): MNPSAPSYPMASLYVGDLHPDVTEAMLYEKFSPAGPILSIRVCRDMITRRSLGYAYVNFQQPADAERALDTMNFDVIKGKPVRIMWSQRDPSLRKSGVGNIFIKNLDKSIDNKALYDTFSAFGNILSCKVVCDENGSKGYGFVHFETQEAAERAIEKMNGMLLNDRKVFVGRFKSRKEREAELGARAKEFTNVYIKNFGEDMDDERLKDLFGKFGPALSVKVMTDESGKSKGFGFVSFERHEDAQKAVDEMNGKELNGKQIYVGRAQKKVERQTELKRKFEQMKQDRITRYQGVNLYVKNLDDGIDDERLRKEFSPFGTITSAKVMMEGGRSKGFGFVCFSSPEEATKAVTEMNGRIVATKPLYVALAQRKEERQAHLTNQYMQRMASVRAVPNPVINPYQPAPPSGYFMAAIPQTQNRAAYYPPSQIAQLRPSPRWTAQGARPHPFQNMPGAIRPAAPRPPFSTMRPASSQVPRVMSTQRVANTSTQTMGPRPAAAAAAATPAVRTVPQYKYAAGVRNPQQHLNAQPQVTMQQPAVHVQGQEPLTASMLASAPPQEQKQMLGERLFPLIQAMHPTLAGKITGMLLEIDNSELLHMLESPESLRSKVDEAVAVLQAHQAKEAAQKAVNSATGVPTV
CSC inhib = blocks cancer stem cells; AID 2717; actives 1.1% (n = 300,000); inhibition, % at 7.5 µM; cancer stem cell-like cells viability, luminescence;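 active = mean at 75% or more and at least half the replicates too; tested in HMLE shEcad cells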;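 note: 0% = median of negative and 100% = median of positive control wells; the first replicate is given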
HIV Env fusion = HIV envelope-mediated fusion inhibition; HeLa-JRFL Env/CEM21 cell fusion, luciferase; inhibition, % at 12.3 µM; actives 1.1% (n = 360,000); AID 651610;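 active = mean replicate inhibition score of at least 50 and every replicate individually at or above 50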;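 note: 0% = plate neutral controls and 100% = maraviroc near 300 nM; one replicate is shown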
MT1-MMP act inh RFP = recorded beside MT1-MMP act inh, whose call it bears; RFP signal change, %; measured here: RFP expression control read;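 0 = vehicle wells; hits needed this value within 50% of zero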
An asterisk follows results filed as active; i = inactive; nt = no result given; & = joins results of further samples. An excerpt; count on the stated rates, not on these rows.

SMILES | MT1-MMP act inh | MT1-MMP act inh RFP | eIF4H FP inh | Yeast UUG start | Rce1 inhib | PABP polyA inh | CSC inhib | HIV Env fusion
COc1ccc(NC(=O)C[C@H]2C(=O)N(c3ccccc3)C[C@@H]2Cc2ccccc2)cc1 | 4 | 3 | nt | -8 | nt | nt | nt | -23
COc1cccc(C(=O)Nc2ccc(-n3nncc3C(C)(C)C)cc2)c1 | 4 | -10 | 0 | nt | i | 8 | nt | -4
O=C(NC1CCCCC1)N(Cc1ccc(F)cc1)Cc1nc2ccccc2c(=O)[nH]1 | 0 | -1 | -2 | -16 | i | 16 | -6 | nt
COc1ccc2cc(S(=O)(=O)N3CCN(C)CC3)ccc2c1 | 1 | 0 | -6 | -4 | i | -15 | -6 | -24
O=C(Nc1ccc(N2CCOCC2)c(S(=O)(=O)Nc2ccccc2Cl)c1)c1ccccc1 | -1 | -7 | nt | 14 | nt | nt | nt | 3
COc1cccc(CN2CCNC(=O)C2CC(=O)NCCCn2ccnc2)c1 (stereo not given) | 7 | 2 | 3 | -2 | i | 3 | -5 | 2
CCOC(=O)c1c(C)n(C)c2ccc(OC)c(NC(=O)CN3CCC4(CC3)OCCO4)c12 | 9 | 3 | -2 | -12 | i | 2 | -9 | -11
CCn1nnnc1NCc1cccc(Cl)c1 | 1 | 3 | 6 | -6 | i | 0 | -5 | 9
C[C@@H]1CN([C@@H](C)CO)C(=O)c2cc(Br)cnc2O[C@H]1CN(C)C(=O)C1CCCCC1 | 3 | 0 | nt | 13&-3&26 | nt | nt | nt | 4
CCOC(=O)N/N=C/c1cn(CCCOc2ccc(C)cc2)c2ccccc12 | -4 | -28 | -3 | -30 | i | 1 | 8 | 29
O=C(N/N=C/c1ccc(F)cc1)c1cccc(NC(=O)c2ccc(F)cc2)c1 | 3 | 5 | 2 | -7 | i | 5 | 21 | 14
O=C(NCC1CCCO1)C1CCN(S(=O)(=O)Cc2ccccc2)CC1 (stereo not given) | 2 | 6 | -4 | 7 | i | -1 | nt | -8
COc1cccc(-c2nc(-c3ccccc3)no2)c1 | -7 | -1 | -10 | -38 | i | 34 | -8 | -189
COc1cccc(/C=N/NC(=O)CCCc2ccc(OC)c(C)c2)c1 | -1 | -9 | 10 | -16 | i | 5 | 7 | 3
O=C(c1cccc(C(=O)N2CCN(c3ccc(F)cc3)CC2)c1)N1CCN(c2ccc(F)cc2)CC1 | 10 | -13 | -13 | 3 | i | 8 | nt | nt
Cc1ccc(-n2c(CNc3ccc(C)c(Cl)c3)n[nH]c2=S)cc1 | 0 | 5 | 6 | -3 | i | -6 | 3 | 0
CN=C1S/C(=C/c2cn(CC(=O)OC)c3ccccc23)C(=O)N1C | -8 | 4 | -5 | -1 | i | -3 | -2 | -4
CCCCN(C)CCNC(=O)Cn1c(=O)sc2ccccc21 | 3 | 1 | 0 | -18 | i | -3 | -12 | -3
O=C1CS/C(=N/N=C/c2ccco2)N1Cc1ccc(F)cc1 | -5 | -3 | 34 | -19 | i | 0 | -5 | -7
O=C(Cc1cccs1)Nc1nnc(-c2ccc(F)cc2)s1 | 10 | 1 | -1 | -4 | nt | 6 | 7 | -32
CCC1CCC(N2CCN(c3ccccc3F)CC2)CC1 (stereo not given) | 0 | 0 | -5 | -9 | i | 6 | 33 | 8
CCN(CC)CCCNC(=O)CCC(=O)Nc1ccc2nc(N3CCCCC3)cc(C)c2c1 | 5 | 0 | -4 | nt | i | -11 | 4 | 5
CCS(=O)(=O)c1nc2ccccc2n1Cc1ccccc1Cl | 6 | -4 | -9 | 7 | i | -13 | -2 | 0
COC(=O)C1=C(C)N(C)C(=S)NC1c1cc(OC)ccc1OC (stereo not given) | -4 | -6 | 0 | nt | i | 4 | -7 | -10
O=C(CCCSc1nc2ccccc2[nH]1)NC1CCCCC1 | 2 | -4 | -6 | nt | i | -4 | nt | -9

A different layout for part of the listing above:
Every second line gives: MT1-MMP act inh | MT1-MMP act inh RFP | eIF4H FP inh | Yeast UUG start | Rce1 inhib | PABP polyA inh | CSC inhib | HIV Env fusion
O=C(NCC1CCCO1)C1CCN(S(=O)(=O)Cc2ccccc2)CC1 (stereo not given)
→ 2 | 6 | -4 | 7 | i | -1 | nt | -8
COc1cccc(-c2nc(-c3ccccc3)no2)c1
→ -7 | -1 | -10 | -38 | i | 34 | -8 | -189
COc1cccc(/C=N/NC(=O)CCCc2ccc(OC)c(C)c2)c1
→ -1 | -9 | 10 | -16 | i | 5 | 7 | 3

Next section
SMILES | MT1-MMP act inh | MT1-MMP act inh RFP | eIF4H FP inh | Yeast UUG start | Rce1 inhib | PABP polyA inh | CSC inhib | HIV Env fusion
Cc1cc(O)ccc1-c1cccc2nccn12 | -3 | 0 | nt | -10 | nt | nt | nt | -15
COc1ccc(CCN(C)C(=O)CNC(=O)c2ccc3c(c2)OCO3)cc1OC | 3 | 0 | 6 | 0 | i | 0 | 19 | 12
O=C(CSc1nnc(CN2CCOCC2)n1-c1ccc(Cl)cc1)Nc1ccc2c(c1)OCO2 | -2 | 1 | -1 | -10 | i | -4 | -9 | -17
N=C1S/C(=C\c2ccccc2)C(=O)N1c1ccc(F)cc1 | 0 | -3 | 36 | nt | i | -5 | nt | 16
CN1CCN(C(=O)c2cc3c(c(-c4cccc(-c5cc6ccccc6o5)c4)n2)[C@H](CCO)N(S(=O)C(C)(C)C)C3)CC1 (stereo not given in full) | 3 | 1 | nt | -8 | nt | nt | nt | 0
Cn1c(=NC(=O)c2ccc3c(c2)OCCO3)sc2cc(S(C)(=O)=O)ccc21 | 4 | 5 | 2 | nt | i | 4 | 3 | 4
O=C(CSCc1ccc(F)cc1)NC1CCCC1 | 2 | 1 | -2 | -16 | i | 2 | 1 | nt
COc1cccc(C2=NOC(C(=O)Nc3cccc(C(C)=O)c3)C2)c1 (stereo not given) | 2 | 3 | -8 | nt | i | -2 | -2 | -29
COc1cccc(N(C(=O)c2snc(C(N)=O)c2N)C(C(=O)NCC2CCCO2)c2ccc(F)cc2)c1 (stereo not given) | -4 | -1 | -1 | -8 | i | -4 | -9 | -11
COc1ccc(CCNc2cn[nH]c(=O)c2Cl)cc1OC | 4 | 5 | -6 | nt | i | -9 | 1 | 24
COc1cc(C(=O)OCC(=O)N(CC(C)C)C2CCS(=O)(=O)C2)ccc1OCC(C)C (stereo not given) | -1 | 1 | nt | 10 | i | nt | 6 | nt
CC(=O)c1ccc(OCCCC(=O)Nc2cccc(S(=O)(=O)N3CCOCC3)c2)cc1 | 1 | -5 | nt | -17 | nt | nt | -18 | 39
Cc1c(NC(=O)c2cc(-c3ccccc3O)on2)c(=O)n(-c2ccccc2)n1C | 0 | 2 | -3 | nt | i | 5 | -8 | -2
CCOC(=O)Cn1c2c(c(=N)c3c1CCC3)CCC2 | 2 | 0 | -3 | -16 | i | -3 | -10 | nt
OCCCN1CNC(=S)NC1 | -1 | -3 | nt | 1 | nt | nt | nt | 8
COc1ccccc1Nc1nc(N)nc(CSCCO)n1 | 4 | 8 | -3 | -31 | i | 13 | 1 | -38
COc1ccc(NC(=O)N2CCC(n3cnc4ccccc43)CC2)cc1 | -3 | -4 | 3 | nt | i | -2 | -9 | 28
CCN(CC(=O)Nc1ccc(OC)cc1)C(=O)CSCC(=O)Nc1ccc(C)cc1 | -4 | 1 | -6 | -4 | i | -6 | -8 | 1
O=C(COC(=O)c1cccs1)c1ccc2ccccc2c1 | 7 | 1 | -5 | -40 | i | -5 | 7 | -63
CN(Cc1ccccc1)C(=O)CN1C(=O)c2ccccc2C1=O | 1 | 0 | 7 | 2 | i | 12 | nt | -19
O=C(NCC(=O)N(c1cccc(F)c1)C(C(=O)NC1CCCC1)c1ccco1)c1ccco1 (stereo not given) | -3 | 2 | -2 | nt | i | 1 | -13 | 19
O=C(Nc1ccn(CCCNCC2CCCCC2)c(=O)n1)OCc1ccccc1 | 1 | 2 | nt | -5 | nt | nt | nt | -4
COc1cc(NC(=O)C2CC2)c(C(=O)O)cc1OC | 7 | 5 | -2 | -13 | i | 21 | -20 | -14
Cc1ccc(C)c(S(=O)(=O)N2CCN(C(=O)c3ccc4ccccc4n3)CC2)c1 | -3 | -3 | nt | 11 | nt | nt | -11 | nt
O=C(COc1ccc(F)cc1)Nc1ccc(S(=O)(=O)Nc2ncccn2)cc1 | 3 | 0 | nt | -17 | i | nt | 2 | -63
Further compounds
SMILES | MT1-MMP act inh | MT1-MMP act inh RFP | eIF4H FP inh | Yeast UUG start | Rce1 inhib | PABP polyA inh | CSC inhib | HIV Env fusion
CCc1noc(C)c1C(=O)N1CCCC(CCC(=O)NCc2cccc(OC)c2)C1 (stereo not given) | 0 | 0 | -11 | 0 | i | 2 | -11 | -11
O=C(NCCCN1CCN(c2cccc(Cl)c2)CC1)c1cccc(N2CCCC2=O)c1 | 2 | 0 | 0 | nt | i | -2 | -9 | nt
CC(=O)c1c(O)c2ccccc2n(Cc2ccccc2)c1=O | 3 | 8 | -1 | 0 | i | -6 | 2 | 2
O=C(Nc1ccccc1)N1CCC(c2ccccc2)C1 (stereo not given) | -11 | -13 | 4 | -14 | nt | 0 | -9 | nt
COc1ccc(NC(=O)CN(C)C(=O)c2cc(-c3cccs3)nn2-c2ccccc2)cc1 | 2 | -1 | nt | nt | i | nt | -12 | 3
CC(=O)Nc1ccc(S(=O)(=O)Nc2nc3ccccc3nc2Nc2ccc(N)cc2)cc1 | -81 | 7 | 49 | 2 | i | 24 | -2 | -36
O=C(NCc1ccco1)c1ccc2c(c1)C(=O)N(C1CCCCC1)C2=O | 0 | -1 | -3 | -12 | i | -17 | 0 | 19
CCOC(=O)c1oc2ccccc2c1NC(=O)COc1ccc(F)cc1 | -3 | 6 | 0 | -9 | i | -6 | 2 | nt
Cc1cc(C)c(S(=O)(=O)N2CCN(C(=O)c3ccc4c(c3)OCO4)CC2)c(C)c1 | -3 | -8 | 1 | 5 | i | -6 | -5 | 18
Cc1cccc(-n2nc(CC#N)c(C#N)c2N)c1 | -3 | 1 | 6 | nt | i | -14 | -4 | -9
COc1ccccc1N1CCN(C2CCCN(C(=O)CCC(C)=O)C2)CC1 (stereo not given) | 0 | -1 | -2 | 1 | i | -4 | -3 | 12
C[C@@H](C(=O)Nc1cccc(S(=O)(=O)N2CCOCC2)c1)N1C(=O)C2CC=CCC2C1=O (stereo not given in full) | -3 | -2 | 12 | 2 | i | 5 | -11 | 4
CC(C)(C)NC(=O)CN(Cc1ccc2c(c1)OCO2)C(=O)CNS(=O)(=O)c1ccc(F)cc1 | -1 | 2 | 1 | -16 | i | 16 | nt | 12
Cc1ccc(C(CC(=O)N2CCCC2)c2ccccc2)c(O)c1C (stereo not given) | -4 | -3 | -5 | -5 | i | -9 | -5 | nt
CC12c3ccccc3C(c3ccccc31)C1C(=O)N(Cc3cccnc3)C(=O)[C@H]12 (stereo not given in full) | -3 | -1 | 1 | 2 | i | 4 | -11 | 0
COc1ccccc1OCC(=O)NCCc1nc2ccccc2[nH]1 | 0 | 1 | 0 | -13 | i | -8 | -4 | nt
Cc1cccc2cc(CN(Cc3ccc(F)cc3)C(=O)N3CCOCC3)c(=O)[nH]c12 | -2 | 2 | -9 | -2 | i | -3 | -21 | nt
COc1ccc(-c2oc(=O)c3cc(OC)c(OC)cc3c2/C=C/c2ccc([N+](=O)[O-])cc2)cc1 | 2 | -1 | nt | -14 | nt | nt | -12 | -27
OCc1ccccc1N=c1ssnc1Cl | nt | nt | -8 | nt | i | 6 | -7 | nt
O=C(c1ccc(OC2CCN(Cc3cccc(OCCO)c3)CC2)cc1)N1CCCC1 | -2 | -1 | 2 | nt | i | 6 | 14 | -12
COc1ccc2cc3cc(C(=O)N4CCN(C5CCCCC5)CC4)oc3nc2c1 | 2 | 2 | nt | -4 | i | nt | -1 | nt
COC(=O)c1sccc1NC(=O)Nc1ccc(C)cc1 | -1 | 2 | 0 | -36 | i | -1 | 4 | nt
O=C(N/N=C/c1cc([N+](=O)[O-])ccc1O)Nc1ccccc1 | -1 | -9 | 1 | nt | i | 3 | 13 | 5
Cc1nnc(NC(=O)c2ccccc2F)s1 | 4 | 0 | -10 | -17 | i | 11 | -19 | nt
